# High-throughput results as filed in PubChem.
# Env fusion inh = blocks HIV Env-driven cell-cell fusion | HeLa-JRFL Env/CEM21 cell fusion, luciferase | actives 1.1% (n = 360,000) | inhibition, % at 12.3 µM | AID 651610;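 active means mean replicate inhibition score of at least 50 and every replicate individually at or above 50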;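 further: 0% = plate neutral controls and 100% = maraviroc near 300 nM; one replicate is shown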
# UUG fidelity = alters start codon recognition fidelity in yeast. S. cerevisiae UUG-firefly luciferase reporter, luminescence/redox ratio. activity score, % at 18.7 µM. actives 0.13% (n = 350,000);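 active means replicate mean at a twofold rise or more, about +100% in these data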;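 further: firefly luciferase made from a UUG start codon reports start codon fidelity; reporter light over untreated wells divided by growth signal over untreated wells; some hits fall short of that in this replicate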
# An asterisk follows results filed as active; i = inactive; [ ] = another dose, or the depositor's remark.
Molecule	Env fusion inh	UUG fidelity
COCCNC(=O)C[C@@H]1C[C@H]2c3cc(N(C)C)ccc3O[C@H]2[C@H](CO)O1	-10.1[16.7 µM]	-15.2
CCC(=O)Nc1ccc2c(c1)C(=O)N(C)C[C@H](OC)[C@H](C)CN(Cc1ccccc1OC)[C@H](C)CO2	6.1[16.7 µM]	-1.4
Cc1ccc(S(=O)(=O)N(C)C[C@H]2OCCCC[C@H](C)Oc3ccc(NS(=O)(=O)c4cn(C)cn4)cc3C(=O)N([C@@H](C)CO)C[C@H]2C)cc1	-0.1[16.7 µM]	-9.8
COc1ccc(NC(=O)Nc2ccc3c(c2)C(=O)N([C@H](C)CO)C[C@H](C)[C@@H](CN(C)C(=O)c2ccccc2)OCCCC[C@H](C)O3)cc1	-50.1[16.7 µM]	6.3
Cc1noc(C)c1S(=O)(=O)Nc1ccc2c(c1)C(=O)N([C@@H](C)CO)C[C@@H](C)[C@@H](CN(C)CC1CCCCC1)O2	0.7[16.7 µM]	1.2
C[C@@H]1CCCCO[C@@H](CN(C)C(=O)Nc2cccc3ccccc23)[C@@H](C)CN([C@H](C)CO)C(=O)c2cc(NC(=O)Nc3ccccc3)ccc2O1	-6.6[16.7 µM]	-17.3
CCCC#Cc1cnc2c(c1)C(=O)N([C@H](C)CO)C[C@H](C)[C@@H](CN(C)C(=O)Nc1c(C)noc1C)O2	5.3[16.7 µM]	0.7
O=C(C[C@@H]1C=C[C@@H](NC(=O)C2CCC2)[C@@H](CO)O1)NC1CCCCC1	-9.6[16.7 µM]	-20.2
C[C@@H]1CN([C@H](C)CO)C(=O)c2cc(NC(=O)Nc3ccc4c(c3)OCO4)ccc2O[C@H]1CN(C)C(=O)Nc1ccc(C(F)(F)F)cc1	5.8[16.7 µM]	-9.1
C[C@H](CO)N1C[C@H](C)[C@@H](CN(C)C(=O)c2ccncc2)Oc2ncc(/C=C/c3ccccc3)cc2C1=O	15.1[16.7 µM]	0.8
O=C(NCC[C@H]1CC[C@H](NC(=O)c2ccccc2F)[C@H](CO)O1)c1ccc2c(c1)OCO2	-6.0[16.7 µM]	-13.1
C[C@@H]1CN([C@H](C)CO)C(=O)Cc2cc(NS(=O)(=O)c3ccc(F)cc3)ccc2O[C@H]1CN(C)S(=O)(=O)c1ccccc1	-12.6[16.7 µM]	1.1
COC(=O)C[C@H]1CC[C@H]2[C@H](COc3ccc(NC(=O)Nc4cccc(Cl)c4)cc3C(=O)N2C)O1	1.6[16.7 µM]	14.9
CC(C)NC(=O)Nc1ccc2c(c1)C(=O)N([C@@H](C)CO)C[C@H](C)[C@@H](CN(C)Cc1ccc(C(F)(F)F)cc1)OCCCC[C@@H](C)O2	-6.0[16.7 µM]	9.4
COc1ccc(NC(=O)Nc2ccc3c(c2)C(=O)N([C@H](C)CO)C[C@@H](C)[C@@H](CN(C)Cc2ccccc2)OCCCC[C@H](C)O3)cc1	0.4[16.7 µM]	2.4
C[C@H](CO)N1C[C@H](C)[C@@H](CN(C)Cc2ccc3c(c2)OCO3)Oc2ccc(NC(=O)c3ccncc3)cc2C1=O	-0.6[16.7 µM]	-26.2
CCC(=O)N(C)C[C@@H]1Oc2cc(-c3ccc(F)cc3)ccc2S(=O)(=O)N([C@@H](C)CO)C[C@@H]1C	-16.1[16.7 µM]	13.1
O=C(Nc1ccc(F)cc1)N[C@H]1CC[C@@H](CCNC(=O)c2cc(Cl)cc(Cl)c2)O[C@H]1CO	7.1[16.7 µM]	12.9
CN1C(=O)c2cc(NC(=O)c3cccs3)ccc2OC[C@@H]2O[C@H](CC(=O)NCC3CC3)CC[C@H]21	0.9[16.7 µM]	12.5
CC(C)CC#Cc1ccc2c(c1)O[C@@H](CN(C)S(C)(=O)=O)[C@H](C)CN([C@H](C)CO)S2(=O)=O	6.4[16.7 µM]	20.7
O=C(C[C@@H]1C[C@@H]2c3cc(NC(=O)C4CCC4)ccc3O[C@@H]2[C@@H](CO)O1)NCC1CC1	-1.9[16.7 µM]	17.9
Cc1noc(C)c1NC(=O)N(C)C[C@@H]1Oc2cc(C#CCC(C)C)ccc2S(=O)(=O)N([C@@H](C)CO)C[C@H]1C	-54.8[16.7 µM]	1.9
O=C(C[C@H]1CC[C@@H](NS(=O)(=O)c2ccccc2)[C@H](CO)O1)NCc1ccncn1	3.1[16.7 µM]	-11.7
CO[C@H]1CN(C)C(=O)c2cc(NC(=O)c3ccc4c(c3)OCO4)ccc2OC[C@@H](C)NC[C@H]1C	-6.4[16.7 µM]	1.7
COc1ccc(NC(=O)N(C)C[C@H]2OCCCC[C@H](C)Oc3ccc(NS(=O)(=O)c4ccc(Cl)cc4)cc3C(=O)N([C@@H](C)CO)C[C@@H]2C)cc1	4.4[16.7 µM]	3.3
C[C@@H]1CCCCO[C@@H](CN(C)C(=O)NC2CCCCC2)[C@@H](C)CN([C@H](C)CO)C(=O)c2cc(N(C)C)ccc2O1	-8.9	-0.5
COc1ccc(S(=O)(=O)Nc2ccc3c(c2)C(=O)N([C@H](C)CO)C[C@H](C)[C@H](CN(C)C(=O)Nc2ccc4c(c2)OCO4)OCCCC[C@@H](C)O3)cc1	-21.1[16.7 µM]	-11.9
C[C@@H]1CCCCO[C@H](CN(C)C(=O)Nc2ccc(C(F)(F)F)cc2)[C@@H](C)CN([C@H](C)CO)C(=O)c2cc(NC(=O)NC3CCCCC3)ccc2O1	-10.3[16.7 µM]	-16.6
COCCOC(=O)N1C(=O)[C@@]2(c3ccccc31)[C@H](c1ccccc1OCCO)N1[C@H](c3ccccc3)[C@H](c3ccccc3)OC(=O)[C@H]1[C@@H]2C(N)=O	i	7.6
C[C@@H]1CN([C@H](C)CO)C(=O)c2cc(N(C)C)ccc2O[C@@H](C)CCCCO[C@H]1CN(C)C(=O)NC1CCCCC1	5.7[16.7 µM]	51.4
CCCNC(=O)N(C)C[C@@H]1Oc2ncc(-c3ccc(F)cc3)cc2C(=O)N([C@@H](C)CO)C[C@@H]1C	19.9[16.7 µM]	-4.8
C[C@@H]1CN([C@@H](C)CO)S(=O)(=O)c2ccc(C#CC3CC3)cc2O[C@H]1CN(C)C	11.5[16.7 µM]	-1.2
CCNC(=O)C[C@H]1CC[C@H]2[C@H](COc3ccc(NC(=O)Nc4cccc(C)c4)cc3C(=O)N2C)O1	10.7[16.7 µM]	5.9
NCC[C@@H]1CC[C@@H](NC(=O)C2CCCC2)[C@H](CO)O1	-16.5[16.7 µM]	-7.3
CO[C@@H]1CN(C)C(=O)c2ccc(NC(=O)c3ccccc3F)cc2OC[C@H](C)N(CC2CC2)C[C@@H]1C	18.1[16.7 µM]	0.5
C/C=C/c1ccc2c(c1)O[C@@H](CN(C)C(=O)Nc1ccc(OC)cc1)[C@@H](C)CN([C@@H](C)CO)S2(=O)=O	-4.5[16.7 µM]	-11.6
CCCNC(=O)N(C)C[C@H]1Oc2ncc(-c3ccc(C(=O)N(C)C)cc3)cc2C(=O)N([C@@H](C)CO)C[C@@H]1C	-7.9[16.7 µM]	-2.0
C[C@H](CO)N1C[C@H](C)[C@H](CN(C)Cc2ccc(Oc3ccccc3)cc2)Oc2ccc(NS(=O)(=O)c3ccccc3)cc2C1=O	-23.0[16.7 µM]	3.5
CCCNC(=O)N(C)C[C@@H]1Oc2cc(C3=CCCC3)ccc2S(=O)(=O)N([C@@H](C)CO)C[C@@H]1C	-12.2[16.7 µM]	1.2
CC(C)COC(=O)N(C)C[C@H]1OCc2cnnn2CCCC(=O)N([C@@H](C)CO)C[C@@H]1C	2.1[16.7 µM]	-1.9
C[C@H](NC(=O)C[C@H]1CC[C@H](NC(=O)C2CC2)[C@@H](CO)O1)c1ccccc1	-1.4[16.7 µM]	-17.0
C[C@@H]1CCCCO[C@H](CN(C)C(=O)Nc2ccc(C(F)(F)F)cc2)[C@@H](C)CN([C@@H](C)CO)C(=O)c2cc(NS(=O)(=O)c3cccs3)ccc2O1	3.2[16.7 µM]	10.4
COc1ccc(CN(C)C[C@H]2OCCCC[C@@H](C)Oc3ccc(NC(=O)c4ccccc4)cc3C(=O)N([C@@H](C)CO)C[C@@H]2C)cc1	-82.3[16.7 µM]	1.8
C[C@H](CO)N1C[C@H](C)[C@@H](CN(C)Cc2ccc(C(=O)Nc3ccccc3N)cc2)Oc2ccc(NC(=O)Nc3ccc4c(c3)OCO4)cc2CC1=O	17.6[16.7 µM]	-10.0
C[C@H](CO)N1C[C@H](C)[C@@H](CN(C)C(=O)C2CC2)Oc2ncc(-c3ccncc3)cc2C1=O	-7.7[16.7 µM]	-1.5
COc1ccc(NC(=O)Nc2ccc3c(c2)C(=O)N([C@@H](C)CO)C[C@H](C)[C@H](CN(C)C(=O)Nc2ccccc2)OCCCC[C@@H](C)O3)cc1	0.8[16.7 µM]	-5.0
C[C@H](CO)N1C[C@H](C)[C@@H](CN(C)Cc2ccc(C(F)(F)F)cc2)Oc2ccc(NC(=O)Nc3ccc(C(F)(F)F)cc3)cc2C1=O	2.5[16.7 µM]	-1.5
O=C(N[C@@H]1CC[C@@H](CCn2cc(C3(O)CCCC3)nn2)O[C@H]1CO)c1ccccc1F	5.2[16.7 µM]	-4.4
C[C@H](CO)N1C[C@H](C)[C@H](CN(C)Cc2ccc(C(F)(F)F)cc2)OCCCC[C@H](C)Oc2ccc(NC(=O)C3CCCCC3)cc2C1=O	17.8[16.7 µM]	9.7
C[C@H](CO)N1C[C@H](C)[C@@H](CN(C)C(=O)Nc2ccccc2F)Oc2ncc(-c3ccccc3)cc2C1=O	-7.1[16.7 µM]	4.8

# Following part:
# Every second line gives: Env fusion inh | UUG fidelity
COc1ccc([C@H]2C=C(C(=O)N3CCCCC3)O[C@@H](OCc3ccc(CO)cc3)C2)cc1
  5.3[16.7 µM] | 2.2
C[C@@H]1CCCCO[C@H](CN(C)S(=O)(=O)c2ccccc2)[C@@H](C)CN([C@H](C)CO)C(=O)c2cc(NC(=O)Nc3ccccc3)ccc2O1
  11.8[16.7 µM] | 3.8
CCNC(=O)C[C@@H]1CC[C@@H]2[C@H](COc3ccc(NC(=O)Nc4ccccc4F)cc3C(=O)N2C)O1
  3.5[16.7 µM] | -3.5
C[C@@H]1CCCCO[C@H](CN(C)C(=O)c2ccncc2)[C@@H](C)CN([C@@H](C)CO)C(=O)c2cc(NC(=O)NC3CCCCC3)ccc2O1
  -0.6[16.7 µM] | 5.9
CN1CCN(C(=O)C2=C[C@H](C(C)(C)C)C[C@H](OCc3ccc(CO)cc3)O2)CC1
  9.8[16.7 µM] | -2.6
C[C@H]1CN([C@@H](C)CO)C(=O)Cc2cc(NS(=O)(=O)c3ccc(Cl)cc3)ccc2O[C@H]1CN(C)Cc1ccc(Oc2ccccc2)cc1
  -11.6[16.7 µM] | 14.4
CC(C)C#Cc1ccc2c(c1)O[C@H](CN(C)C(=O)CN(C)C)[C@H](C)CN([C@@H](C)CO)S2(=O)=O
  4.8[16.7 µM] | 25.0
C[C@H](CO)N1C[C@H](C)[C@@H](CN(C)S(C)(=O)=O)Oc2cc(C3=CCCCC3)ccc2S1(=O)=O
  29.9[16.7 µM] | 21.3
C[C@@H]1CN([C@H](C)CO)C(=O)c2cc(-c3ccc(C#N)cc3)cnc2O[C@H]1CN(C)C(=O)Nc1ccc(F)cc1
  -15.2[16.7 µM] | -1.2
CCCNC(=O)Nc1ccc2c(c1)C(=O)N(C)C[C@@H](OC)[C@@H](C)CN(C)[C@H](C)CO2
  12.2[16.7 µM] | -1.7
CC(C)C#Cc1cnc2c(c1)C(=O)N([C@H](C)CO)C[C@H](C)[C@H](CN(C)Cc1ccccc1F)O2
  14.8[16.7 µM] | -6.7
Cc1ccc(S(=O)(=O)N[C@H]2CC[C@H](CC(=O)NC3CCCCC3)O[C@H]2CO)cc1
  -13.9[16.7 µM] | 11.7
C[C@H]1CN([C@@H](C)CO)C(=O)c2cccc(NS(C)(=O)=O)c2O[C@H]1CN(C)C
  -4.0[16.7 µM] | -22.0
CNC(=O)C[C@H]1CC[C@H]2[C@H](COc3ccc(NC(=O)c4ccccc4Cl)cc3C(=O)N2C)O1
  -10.4[16.7 µM] | -2.5
Cc1noc(C)c1NC(=O)NCC[C@H]1CC[C@@H](NC(=O)Nc2cccc(Cl)c2)[C@H](CO)O1
  16.8[16.7 µM] | 4.6
C[C@H]1CCCCO[C@@H](CN(C)Cc2ccc(C(F)(F)F)cc2)[C@@H](C)CN([C@@H](C)CO)C(=O)c2cc(NC(=O)Nc3ccccc3)ccc2O1
  86.8*[16.7 µM] | -4.2
C[C@H]1CN([C@@H](C)CO)C(=O)c2cc(NC(=O)C3CC3)ccc2O[C@@H]1CN(C)C(=O)Nc1cccc2ccccc12
  37.7[16.7 µM] | -2.1
CCC(=O)N(C)C[C@H]1Oc2ncc(-c3ccccc3C)cc2C(=O)N([C@@H](C)CO)C[C@@H]1C
  0.0[16.7 µM] | 1.9
N#C[C@H]1[C@@H](c2ccc(-c3ccccc3)cc2)[C@@H](CO)N1C(=O)Cc1ccccc1
  2.2[16.7 µM] | -2.1
COCC#Cc1cnc2c(c1)C(=O)N([C@@H](C)CO)C[C@H](C)[C@H](CN(C)C(=O)C1CCOCC1)O2
  0.4[16.7 µM] | -12.2
CNC[C@@H]1Oc2ccc(NC(=O)Nc3ccc(OC)cc3)cc2CC(=O)N([C@@H](C)CO)C[C@@H]1C
  7.0[16.7 µM] | 8.1

# Fetched by compound from above (three):
# Every second line gives: Env fusion inh | UUG fidelity
C[C@@H]1CCCCO[C@@H](CN(C)C(=O)Nc2cccc3ccccc23)[C@@H](C)CN([C@H](C)CO)C(=O)c2cc(NC(=O)Nc3ccccc3)ccc2O1
  -6.6[16.7 µM] | -17.3
CC(C)COC(=O)N(C)C[C@H]1OCc2cnnn2CCCC(=O)N([C@@H](C)CO)C[C@@H]1C
  2.1[16.7 µM] | -1.9
CCCC#Cc1cnc2c(c1)C(=O)N([C@H](C)CO)C[C@H](C)[C@@H](CN(C)C(=O)Nc1c(C)noc1C)O2
  5.3[16.7 µM] | 0.7

# This is a subset; the hit share may differ from the screen's.
